FGF22 binding: binders of human FGF22 protein, primary screen, FGF22 synaptogenesis inhibitor project, biophysical, thermal shift, single point | recombinant FGF22 thermal shift, SYPRO orange fluorescence; percent of sucrose octasulfate shift, DMSO zero | 340,000 compounds, 1.5% hits | AID 651658, 2012 | Fibroblast growth factor 22 (Homo sapiens), Q9HCT0 | calls only at 9.99 µM;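 active = melting point raised past a set limit in the mean and every replicate; inconclusive = no clear call; three in four hits are not shown here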
Target sequence (Q9HCT0 whole entry, looked up): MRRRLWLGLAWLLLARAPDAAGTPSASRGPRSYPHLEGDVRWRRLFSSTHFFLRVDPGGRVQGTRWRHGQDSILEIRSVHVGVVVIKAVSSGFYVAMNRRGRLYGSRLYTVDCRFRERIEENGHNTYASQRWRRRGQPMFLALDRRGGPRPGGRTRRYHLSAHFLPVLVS
rRNA inh HTS: reduced GFP signal of wild-type E. coli, primary screen, bacterial rRNA inhibitor project, GFP/RFP fluorescence, OD600, single point. 350,000 compounds, 1.6% hits. E. coli WT GFP vs humanized-ribosome RFP mutants, 24 h; active compounds read low; DMSO median 0, no signal -100. GFP signal change (wild-type ribosome), % (concentration not given with the values). AID 720706, 2013;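 active = significant combined selectivity score with lowered wild-type GFP, culture density cut under 30%, mutant RFP and density less affected; inactive = any of these conditions unmet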; also: one replicate is shown; some compounds called inactive have numbers as strong as hits
MLL AF4-AF9 inh: inhibitors of AF4 peptide binding to AF9, primary screen, biochemical, AlphaScreen, biotin-AF4 peptide, FLAG-AF9, single point | Protein AF-9 (Homo sapiens), P42568 | inhibition, % at 10 µM | 350,000 compounds, 0.47% hits;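 active = every replicate reaching a set inhibition limit, whatever the replicate mean, cut at about 25% in these data; inconclusive = mean inhibition reaches that limit but some replicates miss it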;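 also: 0% = plate neutral control median and 100% = total signal loss; the record names both 10 and 1 µM as test concentration; the first replicate is given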
HNF4A DNA FP: change in binding of human HNF4A to DNA, primary screen, biochemical, fluorescence polarization, FITC-DNA; Hepatocyte nuclear factor 4-alpha (Homo sapiens), P41235; 1 h; activity change, % at 10 µM; 360,000 compounds, 0.3% hits; AID 1224865, 2016; in the data active = activity change above about 30%, passing the limit was not always enough;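 also: controls were the assay level and a saturating level of protein; the project sought stronger binding though the title names inhibitors; some compounds called inactive have numbers as strong as hits; positive values seem to mean higher polarization but the record does not say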
Target sequence (P41235 whole entry, looked up): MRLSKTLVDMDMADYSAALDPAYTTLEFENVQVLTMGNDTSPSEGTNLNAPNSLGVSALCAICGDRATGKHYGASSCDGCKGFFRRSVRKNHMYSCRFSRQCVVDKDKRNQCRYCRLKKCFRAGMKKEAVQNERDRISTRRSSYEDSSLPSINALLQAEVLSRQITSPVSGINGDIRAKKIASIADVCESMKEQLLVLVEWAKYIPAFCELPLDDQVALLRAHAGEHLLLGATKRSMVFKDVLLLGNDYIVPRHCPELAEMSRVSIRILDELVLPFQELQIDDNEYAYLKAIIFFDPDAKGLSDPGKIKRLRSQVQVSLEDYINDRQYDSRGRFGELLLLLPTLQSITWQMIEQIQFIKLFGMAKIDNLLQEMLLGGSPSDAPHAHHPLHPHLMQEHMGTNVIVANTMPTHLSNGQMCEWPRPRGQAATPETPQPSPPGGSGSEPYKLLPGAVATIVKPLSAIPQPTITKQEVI
ALR inh: inhibitors of human ALR sulfhydryl oxidase, primary screen, biochemical, H2O2 detection, HRP-luminol luminescence, single point | FAD-linked sulfhydryl oxidase ALR (Homo sapiens), P55789 | purified ALR, DTT oxidation | inhibition, % (test concentration not listed) | 290,000 compounds, 3.8% hits;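 active = mean and each replicate at 75% or more; inconclusive = only one of the two met; inactive = neither met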;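 also: stock transfer was 7.5 nL into about 7.5 µL; 0% = neutral wells and 100% = wells with inactivated enzyme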
Target sequence (P55789 whole entry, looked up): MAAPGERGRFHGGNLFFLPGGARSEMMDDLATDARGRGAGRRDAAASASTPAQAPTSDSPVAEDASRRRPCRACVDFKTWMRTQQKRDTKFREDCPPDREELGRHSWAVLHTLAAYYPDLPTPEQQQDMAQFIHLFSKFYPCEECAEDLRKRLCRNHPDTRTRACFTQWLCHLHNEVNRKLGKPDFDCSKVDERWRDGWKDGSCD
Vif TR-FRET: inhibitors of Vif binding to APOBEC3G peptide, primary screen, biochemical, TR-FRET, GST-Vif 1-94, biotin-A3G peptide, dose response retest (AID 1117319) | Virion infectivity factor (Human immunodeficiency virus type 1 group M subtype B (isolate … | TR-FRET GST-Vif / biotin-A3G peptide binding; higher % means a stronger effect; test concentration not given here; strong numbers were not always called active | inhibition, %, or IC50 in µM where a hit was titrated | 260,000 compounds, 0.57% hits;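 active = above the screen mean plus three standard deviations and confirmed in dose response; inconclusive = results disagree or hit not tested in dose response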;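 also: Vif residues 1-94 fused to GST binding biotinylated APOBEC3G peptide 110-148; 0% = full assay without inhibitor and 100% = GST in place of GST-Vif; retest series ran down from 100 µM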
E coli growth: E. coli growth inhibition, primary screen, OD600. 330,000 compounds, 0.21% hits. Escherichia coli growth, 23 h; active compounds read low. AID 1053175, 2014. OD600 absorbance (concentration not given with the values);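 active = OD600 absorbance below the run mean of sample wells minus 3.6 SD, in any replicate, cut at about 0.56 in these data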;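 also: stock transfer was 300 nL into about 60 µL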
rRNA inh HTS OD600: second read-out of rRNA inh HTS, no call of its own (marks repeat the call); OD600 change, %; measured here: OD600 growth;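 optical density of the mix in the first replicate; 0 = DMSO median and -100 = no signal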
rRNA inh HTS RFP: further read-out of rRNA inh HTS, marked with its call; RFP signal change, %; measured here: RFP humanized mutant strains;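 first replicate; 0 = DMSO median and -100 = no signal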
Numbers without * were called inactive; i = inactive; ? = inconclusive; · = not tested or not shown.

Value order: FGF22 binding	rRNA inh HTS	rRNA inh HTS OD600	rRNA inh HTS RFP	MLL AF4-AF9 inh	HNF4A DNA FP	ALR inh	Vif TR-FRET	E coli growth
CC(=O)NCC(=O)NC(Cc1ccccc1)C(N)=O (stereo not drawn)
    ·	·	·	·	·	3.0	-4	19%	0.78
CCCCCCCNC(=O)C1(CC2CC(c3ccc(Cl)cc3)=NO2)CCN(C(=O)OC(C)(C)C)CC1 (stereo not drawn)
    i	18	12	-0.2	1.6	0.6	-7	·	0.7
Cc1cc2c(cc1S(=O)(=O)NCc1ccccc1Cl)OCCN2C
    i	1	-27	1.5	0.9	-0.8	20	·	0.66
CCc1ccc(C(=O)NC(C(=O)O)C(C)C)cc1 (stereo not drawn)
    ·	·	·	·	·	-3.4	·	2%	0.72
CCN(CC)C(=O)c1sc2nc(N3CCOCC3)c3c(c2c1N)CCCC3
    ·	·	·	·	·	-1.3	1	11%	0.69
C[C@@H]1CCCCO[C@@H](CN(C)C(=O)c2ccncc2)[C@H](C)CN([C@@H](C)CO)C(=O)c2cc(NC(=O)c3ccncc3)ccc2O1
    i	2	10	-3.0	-0.2	·	·	·	·
Cc1ccc2cccc(NC(=S)NC(=O)c3ccn(C)n3)c2n1
    ·	·	·	·	·	-1.2	-10	-9%	0.7
C/C=C/c1ccc([C@@H]2[C@H](CO)N(C(C)=O)C23CN(C(=O)c2ccncc2)C3)cc1
    i	3	6	-1.6	2.5	·	·	·	·
CCOc1ccc(S(=O)(=O)NCC2CCCO2)cc1 (stereo not drawn)
    ·	·	·	·	·	-2.4	-3	-6%	0.67
c1ccc(CSc2nnc(Cc3ccccn3)o2)cc1
    ·	·	·	·	·	-0.9	-11	-4%	0.69
Cc1ccc(-c2c[n+](CC(=O)Nc3nc(-c4ccccc4)cs3)c3n2CCC3)cc1
    i	-47*	-38*	-10*	18	5.1	-21	1%	0.61
Cc1noc(C)c1S(=O)(=O)Nc1ccc2c(c1)CC(=O)N([C@@H](C)CO)C[C@H](C)[C@H](CN(C)S(=O)(=O)c1ccc(Cl)cc1)O2
    i	-1	-23	3.1	-1.9	·	·	·	·
C[C@@H]1CN([C@H](C)CO)C(=O)c2cc(NC(=O)c3ccncc3)ccc2O[C@@H](C)CCCCO[C@@H]1CN(C)C(=O)c1ccccc1
    i	-3	12	0.0	-2.4	·	·	·	·
CC=Cc1ccc2n(c1=O)C[C@H]1[C@H](CO)[C@@H](C(=O)N[C@@H](C)c3ccccc3)[C@@H]2N1Cc1ccccc1 (mixture of isomers)
    i	-3	-7	4.6	2.1	·	·	·	·
COc1ccc(NC(=O)C2CCCN(S(=O)(=O)c3c(C)n[nH]c3C)C2)cc1OC (stereo not drawn)
    i	13	2	1.9	0.5	0.4	·	1%	0.64
CC1(C(=O)NCCc2ccccc2)Cc2c(-c3ccc4c(c3)OCO4)ccnc2O1 (stereo not drawn)
    i	·	·	·	2.5	5.9	·	·	·
O=C(NCc1cccnc1)C1CCCCN1S(=O)(=O)c1ccc(F)cc1 (stereo not drawn)
    ·	·	·	·	·	1.7	-4	-7%	0.7
Cc1c(C(=O)NCc2ccccn2)oc2c(Cl)cccc12
    i	0	5	2.8	4.1	-1.1	0	3%	0.6
O=C(NNC(=O)c1ccccc1-n1cccc1)c1cccc(Cl)c1
    ·	·	·	·	·	-0.3	-2	5%	0.72
CCS(=O)(=O)N1Cc2ccccc2CC1C(=O)Nc1ccc(NC(C)=O)cc1 (stereo not drawn)
    ·	·	·	·	·	8.0	-4	-6%	0.71
COc1ccccc1CC(=O)NNC(=O)c1ccco1
    i	9	12	-0.4	2.9	1.0	·	·	0.67
C/C=C/c1ccc2c(c1)O[C@@H](CN(C)C(=O)COC)[C@H](C)CN([C@@H](C)CO)S2(=O)=O
    i	-3	5	-0.1	-3.3	·	·	·	·
O=C(c1cccnc1)N1C[C@@H]2[C@H](c3ccccc31)[C@@H](CO)N2C(=O)C1CCOCC1
    i	0	1	-0.8	0.0	·	·	·	·
O=C(Cc1ccc([N+](=O)[O-])cc1)NCC1CCCO1 (stereo not drawn)
    i	8	8	-1.0	-0.3	-1.6	-4	2%	0.72
Cc1cc(C)c(S(=O)(=O)N(C)CC(=O)NCc2ccncc2)c(C)c1
    i	5	-5	-0.8	1.3	0.1	-1	·	·
CCOC(=O)C(=CNc1ccc(NC2=NCC(C)S2)cc1)C(=O)OCC (stereo not drawn)
    i	-29	-25	28	4.0	-4.6	-15	-3%	0.69
CC1CCN(C(=O)COC(=O)c2ccccc2NCCO)CC1
    i	14	24	0.0	-2.1	-1.9	·	1%	·
CCS(=O)(=O)N1CCC(N2CCC(C)CC2)CC1
    i	10	6	2.9	-3.4	1.9	·	13%	0.71
CCN(CC(=O)Nc1ccc(S(=O)(=O)N2CCCC2)cc1)CC(=O)Nc1cccc(OC)c1
    i	6	2	-4.9	-4.3	7.5	-5	1%	0.68
O=C(/C=C/c1ccccc1Cl)NCCN1CCOCC1
    i	11	11	3.3	3.8	-0.2	-1	4%	0.69

Compounds listed so far that contain a furan ring, fused or not:
Value order: FGF22 binding	rRNA inh HTS	rRNA inh HTS OD600	rRNA inh HTS RFP	MLL AF4-AF9 inh	HNF4A DNA FP	ALR inh	Vif TR-FRET	E coli growth
Cc1c(C(=O)NCc2ccccn2)oc2c(Cl)cccc12
    i	0	5	2.8	4.1	-1.1	0	3%	0.6
COc1ccccc1CC(=O)NNC(=O)c1ccco1
    i	9	12	-0.4	2.9	1.0	·	·	0.67

Continued.
Value order: FGF22 binding	rRNA inh HTS	rRNA inh HTS OD600	rRNA inh HTS RFP	MLL AF4-AF9 inh	HNF4A DNA FP	ALR inh	Vif TR-FRET	E coli growth
CCc1ccc(Nc2nc(C)cc(C)n2)cc1
    i	-15	-14	-0.1	-2.0	0.0	-20	·	0.64
O=C(C1CCCN(S(=O)(=O)c2cccc3nonc23)C1)N1CCN(c2ccccc2)CC1 (stereo not drawn)
    i	-29*	-16*	-3.3*	5.3	2.3	16	?	0.68
CCOc1ccc2[nH]c(=O)c(=O)[nH]c2c1
    ·	·	·	·	·	-0.7	-18	15%	0.72
CC(C)=CCC/C(C)=C/CNC(=O)C[C@H]1C[C@H](C(=O)N(C(C)C)C(C)C)[C@@]2(C)c3[nH]c4ccc(Cl)cc4c3CCN2C1=O
    i	-2	4	-2.4	-1.7	-0.6	·	1%	0.7
O=S1(=O)CCC(SCc2nc3sccn3c2Br)C1 (stereo not drawn)
    ·	·	·	·	·	-7.0	-2	?	0.68
N#Cc1ccc(NC(=O)c2cc(-c3cccs3)on2)cc1
    i	5	11	-4.4	-34	-2.8	50	-37%	0.69
COc1ccc(C(C)=O)cc1COC(=O)CCC(=O)c1cccs1
    i	-3	1	0.3	-3.3	4.4	·	·	0.71
N#C[C@@H]1[C@@H](c2ccc(C#Cc3cccnc3)cc2)[C@@H](CO)N1C(=O)NC1CCCCC1
    i	-3	-15	-1.5	-0.9	·	·	·	·
O=[N+]([O-])c1cccc(CSc2ncnc3ccccc23)c1
    i	-19	-10	-2.7	2.5	1.4	99*	-12%	0.69
COc1ccc(C(C)NC(=O)c2ccccc2Br)cc1OC (stereo not drawn)
    i	15	11	4.1	-0.8	3.4	-3	-6%	0.68
CN(Cc1ccccc1)S(=O)(=O)c1ccc(NS(C)(=O)=O)cc1
    ·	·	·	·	·	4.0	1	-5%	0.7
O=C(CSc1nnc(COc2cccc3cccnc23)o1)c1ccc(F)cc1
    i	-25*	-4.6*	9.7*	-12	-4.2	-5	-2%	0.65
CCCCCCCC[n+]1c(C)n(-c2ccccc2)c2ccc(NC(C)=O)cc21
    ·	-53	-79	-16	-4.0	4.7	·	10%	0.69
CC(C)c1ccc(NC(=O)CCS(=O)(=O)c2cccc3nonc23)cc1
    i	-3	-2	0.7	3.8	4.1	·	-7%	0.68
Cc1ccc(-c2[nH]c(=O)n3ccncc23)s1
    ·	·	·	·	·	-0.5	32	3%	0.7
O=C(C[C@H]1CC[C@H](NC(=O)c2cccc(F)c2)[C@H](CO)O1)NCCN1CCCC1
    i	0	4	-2.0	0.0	·	·	·	·
O=C(O)CCCNC(=O)c1ccccn1
    i	28	22	-3.2	-2.8	0.4	-4	?	0.67
COc1ccc(C2=NCCn3nc4cc([N+](=O)[O-])ccc4c32)cc1
    ·	·	·	·	·	3.3	-25	·	0.69
C[C@H](CO)N1C[C@H](C)[C@@H](CN(C)S(C)(=O)=O)Oc2cc(C3=CCCCC3)ccc2S1(=O)=O
    i	5	-16	-3.3	2.1	·	·	·	·
COc1ccc(C(=O)/C=C(\C)Nc2ccc(NC(C)=O)cc2)cc1
    i	2	6	3.0	3.7	2.6	68	6%	0.67
COC(=O)c1ccccc1NC(=O)c1ccccc1OC
    ·	·	·	·	·	0.8	2	0%	0.74
COc1ccc(S(=O)(=O)N2CCOCC2)cc1NC(=O)COC(=O)CCOc1ccc(C)cc1
    i	10	0	-0.5	2.9	0.7	·	-5%	0.63
CS(=O)(=O)N(CC(=O)Nc1cccnc1)c1ccc2c(c1)OCO2
    ·	·	·	·	·	0.1	-9	1%	0.69
CNC(=O)C1CN(C(=O)c2cccc(S(=O)(=O)N3c4ccccc4CC3C)c2)c2ccccc2O1 (stereo not drawn)
    i	-9	-25	0.2	0.3	-2.0	0	2%	0.67
COc1ccc(C)cc1Nc1nc(-c2c[nH]c3ccccc23)cs1
    i	5	6	-0.4	3.3	20	·	?	0.74
CCc1ccc(NC(=O)CSCCO)cc1
    i	3	15	-0.9	-2.4	4.8	-3	-2%	0.66
CSCCC(NS(=O)(=O)c1ccc(C)cc1)C(=O)N1CCN(S(=O)(=O)c2ccc(F)cc2)CC1 (stereo not drawn)
    i	0	-4	1.9	-8.1	-2.2	·	0%	0.62
COc1ccc(S(=O)(=O)NCC2CCC(C(=O)O)CC2)cc1 (stereo not drawn)
    i	5	2	1.1	-0.8	-1.9	8	-4%	0.69
O=C(CSc1nnc(NC(=O)c2c(F)cccc2F)s1)NC1CCCC1
    i	1	-1	-1.9	-3.0	5.3	-6	·	0.64
Cc1cc(F)ccc1NCc1ccccc1[N+](=O)[O-]
    i	-13	-13	8.9	5.4	-1.1	99*	8%	0.64
Cc1nc2cc(NC(=O)Nc3cccc4ccccc34)ccc2n1C
    i	7	15	1.7	-3.9	1.4	-33	6%	0.7
CCOC(=O)Cc1csc(NC(=O)c2cccc([N+](=O)[O-])c2)n1
    i	-2	5	-3.9	-2.5	-1.7	-10	-1%	0.68
C[C@H](CO)N1C[C@H](C)[C@@H](CN(C)C(=O)Nc2cccc(F)c2)Oc2ncc(C3=CCCCC3)cc2C1=O
    i	-3	-13	-0.8	0.6	·	·	·	·

Screens: PubChem BioAssay, several laboratories

This is a subset, so the mix of outcomes need not match the whole.
